# Assay outcomes (PubChem)
# UCH37 DUB inh = human UCH37 deubiquitinating enzyme inhibition. purified proteasome/UCH37, Ub-AMC cleavage fluorescence. Q9Y5K5. inhibition, % (concentration not given with the values). AID 588478. 330,000 compounds, 0.33% hits;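 active = mean of two replicates above 20%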;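 also: 0% = compound-free wells with enzyme and 100% = wells lacking proteasome; stock transfer was 100 nL into about 20 µL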
#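 Material: human UCH37 enzyme supplied as purified proteasome complex / Amount: 0.15 nM proteasome as dispensed / Buffer or medium: pH 7.4 Tris-HCl (50 mM) with ovalbumin, ATP-MgCl2, DTT / Times: preincubation 30 min, reaction 25 min, room temperature / Technique: AMC fluorescence from Ub-AMC cleavage, excitation 355 nm, emission 460 nm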
# A1 inh = inhibitors of the anti-apoptotic protein A1, read as caspase activation; caspase activation, % (test concentration not listed); 330,000 compounds, 0.066% hits; AID 2462; MEF A1-2A-BIM cells, Caspase-Glo 3/7 luminescence, 3 h; percent of clofoctol response, vehicle zero;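 active = over half of replicate activation scores above 10%, or exactly half above 10 with the replicate mean above 10; inconclusive = replicate mean below 10 yet half the replicates above 10; inactive = over half of replicates below 10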;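 also: wells of about 30 µL received 50 nL stock; many hits fall short of the cut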
# Vif TR-FRET = HIV-1 Vif–A3G interaction blockers – biochemical, TR-FRET, GST-Vif 1-94, biotin-A3G peptide, dose response retest, primary screen (AID 1117319). inhibition, %, or IC50 in µM where a hit was titrated. 260,000 compounds, 0.57% hits. TR-FRET GST-Vif / biotin-A3G peptide binding; higher % means a stronger effect; test concentration not given here; strong numbers were not always called active;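 active = above the screen mean plus three standard deviations and confirmed in dose response; inconclusive = results disagree or hit not tested in dose response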;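 also: Vif residues 1-94 fused to GST binding biotinylated APOBEC3G peptide 110-148; 0% = full assay without inhibitor and 100% = GST in place of GST-Vif; retest series ran down from 100 µM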
# LANA-H2B inh = blocks KSHV LANA binding to histone H2A/H2B | Q9QR71 | AID 2629 | cell-free LANA-H2A/H2B peptide, fluorescence polarization | 320,000 compounds, 0.6% hits | inhibition, % (test concentration not listed); in the data active = inhibition mostly above about 10%, no sharp cut-off; inactive = mostly below about 6.7%;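 also: stock transfer was 7.5 nL into about 10 µL; 0% = median of vehicle wells and 100% = median of positive control wells; one replicate is shown; the record names a cut of 25% in any replicate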
# Target sequence (Q9QR71 whole entry, looked up): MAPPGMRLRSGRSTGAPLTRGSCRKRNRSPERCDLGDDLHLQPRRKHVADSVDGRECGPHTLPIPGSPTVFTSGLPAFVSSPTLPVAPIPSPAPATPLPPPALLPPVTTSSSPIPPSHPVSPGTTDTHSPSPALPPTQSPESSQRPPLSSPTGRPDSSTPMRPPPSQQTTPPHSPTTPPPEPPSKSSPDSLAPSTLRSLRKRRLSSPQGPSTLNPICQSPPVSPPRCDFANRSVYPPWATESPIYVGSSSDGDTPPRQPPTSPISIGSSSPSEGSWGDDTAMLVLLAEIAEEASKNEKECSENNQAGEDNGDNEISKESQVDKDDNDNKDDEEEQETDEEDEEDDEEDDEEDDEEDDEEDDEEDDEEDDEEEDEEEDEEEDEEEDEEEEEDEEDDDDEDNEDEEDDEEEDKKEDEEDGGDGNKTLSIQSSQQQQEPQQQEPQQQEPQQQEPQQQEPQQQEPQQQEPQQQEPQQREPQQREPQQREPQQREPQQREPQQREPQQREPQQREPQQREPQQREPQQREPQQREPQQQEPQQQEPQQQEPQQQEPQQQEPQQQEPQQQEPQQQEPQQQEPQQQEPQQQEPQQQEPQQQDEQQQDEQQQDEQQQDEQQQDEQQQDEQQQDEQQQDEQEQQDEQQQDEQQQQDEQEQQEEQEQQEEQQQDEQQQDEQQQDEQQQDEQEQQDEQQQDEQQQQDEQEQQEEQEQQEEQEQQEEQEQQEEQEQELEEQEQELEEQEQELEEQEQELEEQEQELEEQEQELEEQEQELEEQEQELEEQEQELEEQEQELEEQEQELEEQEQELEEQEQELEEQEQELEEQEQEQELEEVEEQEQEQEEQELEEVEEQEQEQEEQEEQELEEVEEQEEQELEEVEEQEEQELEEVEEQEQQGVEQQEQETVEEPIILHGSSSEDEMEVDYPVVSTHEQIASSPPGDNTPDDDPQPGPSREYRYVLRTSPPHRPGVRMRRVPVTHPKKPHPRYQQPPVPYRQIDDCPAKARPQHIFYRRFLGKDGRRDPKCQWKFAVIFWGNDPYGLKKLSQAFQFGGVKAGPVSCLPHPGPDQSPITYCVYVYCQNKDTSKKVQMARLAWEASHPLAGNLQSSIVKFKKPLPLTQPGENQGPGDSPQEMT
# Beta2AR agonist = activates human beta-2 adrenergic receptor causing internalization. P07550. Am2.2-beta2AR cells, FAP receptor internalization, flow cytometry; reference of the scale not given here. response, % (concentration not given with the values). 340,000 compounds, 0.43% hits. AID 504454;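 active = response above a set limit, near 3 SD of response in nonfluorescent compounds, cut at about 42% in these data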;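 also: stock transfer was 100 nL into about 11 µL; a reference agonist was the positive control; negative values mostly stem from fluorescent compounds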
# Ecoli growth = inhibitors of Escherichia coli growth | OD600, 23 h; stronger effect = lower value | OD600 absorbance (concentration not given with the values) | 330,000 compounds, 0.21% hits | AID 1053175;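 active = OD600 absorbance below the run mean of sample wells minus 3.6 SD, in any replicate, cut at about 0.56 in these data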;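 also: stock transfer was 300 nL into about 60 µL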
# HNF4A DNA FP = change in binding of human HNF4 alpha to DNA. HNF4a-FITC DNA binding, fluorescence polarization, 1 h. AID 1224865. P41235. activity change, % at 10 µM. 360,000 compounds, 0.3% hits; in the data active = activity change above about 30%, passing the limit was not always enough;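 also: controls were the assay level and a saturating level of protein; the project sought stronger binding though the title names inhibitors; some compounds called inactive have numbers as strong as hits; positive values seem to mean higher polarization but the record does not say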
# Starred values were filed as active, the others as inactive; ? = inconclusive; · = not tested or not shown.
SMILES,UCH37 DUB inh,A1 inh,Vif TR-FRET,LANA-H2B inh,Beta2AR agonist,Ecoli growth,HNF4A DNA FP
CCCNS(=O)(=O)c1ccc(CCC(=O)NCCc2ccc(OC)c(OC)c2)cc1,5.3,2.2,0%,9.4,3,0.66,0.4
CC(OC(=O)c1ccc([N+](=O)[O-])o1)C(=O)NC1CCCCC1C (stereo not given),7.6,1.1,>100µM*,-3.8,1,0.67,-3.9
CCOC(=O)C1(Cc2ccc(OC)cc2)CCN(C(=O)c2cncs2)CC1,-0.1,-0.1,-10%,-0.8,-5,0.63,0.9
CCOC(=O)c1c(CSc2ccccc2)n(C)c2ccc(O)c(CN3CCOCC3)c12,5.5,0.6,2%,18*,-1,0.73,-3.4
O=C(CCC1CCN(Cc2ccc(Cl)cc2)CC1)NC1CC1,-1.1,2.7,·,4.1,1,0.66,2.5
FC(F)(F)c1ccccc1NC(=S)Nc1ccccc1,3.2,1.5,4%,0.4,3,0.69,3.2
Cc1ccc(Cl)cc1N1CCN(C(=O)C(C)n2ncn3cccc3c2=O)CC1 (stereo not given),0.0,0.8,·,-3.3,16,0.75,-5.0
COc1cc2c(cc1OC)C(C)N(C(=O)C1COc3ccccc3O1)CC2 (stereo not given),2.1,0.3,-6%,-0.1,7,0.75,1.1
CC(OC(=O)c1ccc(-n2cnnn2)cc1)C(=O)NCc1ccccc1 (stereo not given),0.5,-0.2,1%,0.3,-3,0.7,3.6
COc1ccc(S(=O)(=O)N2CCOCC2)cc1N(C)S(=O)(=O)c1ccc(C)cc1,0.6,0.0,·,-8.4,-2,0.68,1.9
CCOC(=O)C1Cc2cc3c(cc2C1=O)CC(C(=O)OCC)C3=O (stereo not given),-52,·,?,·,·,0.69,·
CCNc1nc(NCC)nc(SCC(C)=O)n1,1.4,-0.6,1%,1.3,-7,0.66,-0.7
CC1CCCCN1C(=O)COC(=O)c1ccc(N2CCCC2=O)cc1 (stereo not given),·,0.6,·,0.8,-14,·,1.6
COc1cccc(Nc2nc(NCCO)c3ccccc3n2)c1,0.6,0.8,-8%,-2.4,14,0.71,2.8
CC1(C(=O)NCc2cccnc2)CCC(=O)N1CCc1ccccc1 (stereo not given),7.1,-0.1,6%,2.0,-5,0.72,-5.2
Cc1onc(-c2c(Cl)cccc2Cl)c1C(=O)ONC(=O)c1cc(C(F)(F)F)cc(C(F)(F)F)c1,1.3,-1.6,·,3.3,-3,0.66,-0.8
Cc1cccc2c1c(N=NC(N)=S)c(O)n2C1OC(CO)C(O)C(O)C1O (stereo not given),13,0.9,-2%,-2.5,7,0.65,0.5
C(=N\Nc1ncnc2nc[nH]c12)/c1cccs1,·,-4.6,4%,5.2,7,·,-1.8
CCCn1c(NC(=O)c2ccc(C)cc2)nc2ccccc21,-24,-0.4,-2%,6.6,-1,0.81,3.1
O=C(C1CCC(CNS(=O)(=O)c2ccccc2)CC1)N1CCCCC1 (stereo not given),0.3,1.4,-5%,0.4,-9,0.68,1.4
COc1cc(C(=O)OCc2nc3ccsc3c(=O)[nH]2)c([N+](=O)[O-])cc1OC,2.6,0.5,-3%,-4.1,9,0.65,0.6
CO/N=C/C(C#N)=C/c1cc(C(=O)c2ccc(F)cc2)cn1C,·,-0.5,2%,-3.6,-6,·,-3.8
O=[N+]([O-])c1ccc(O)c(C2CCCCC2)c1,5.7,·,-2%,·,17,0.19*,1.4
COc1cccc(/C=C/C(=O)c2ccc[nH]2)c1,6.2,-2.7,-2%,-2.1,-3,0.66,0.4
COC(=O)CCC(=O)Nc1nc(-c2ccccc2)cs1,8.1,0.7,·,-0.9,7,0.7,-3.7
CC(C)(C)N/N=C/c1c(O)n(-c2ccc(Cl)cn2)c(=O)c2ccccc12,1.3,0.4,2%,0.4,-4,0.69,0.4
CN(C)C(=O)NC1c2ccccc2-c2ccccc21,1.1,-0.7,-13%,-3.1,3,0.68,3.0
COc1ccc(OCC(=O)Nc2ccc3c(c2)nc(CCNC(C)=O)n3C)cc1,-0.8,1.8,3%,4.7,1,0.68,-1.7
CCCc1ncc(C(O)c2cccc3ccccc23)n1C (stereo not given),-1.0,1.0,4%,-2.4,0,0.72,0.0
Cc1nc(NCc2ccco2)nc2c1C(=O)CC(C)C2 (stereo not given),1.5,1.1,11%,2.1,-1,0.76,-1.0
Cc1cccc(NC(=O)COc2cccc3c2CCN(C)C3=O)c1,3.9,0.6,3%,0.8,2,0.71,3.3
Cc1c(C(=O)N2CCCCC2)sc(NC(=O)C(C)C)c1C#N,5.5,-0.2,-1%,-1.1,-5,0.69,0.1
COc1ccc(N(C)C(=O)c2cc3c(s2)-c2ccccc2OC3)c(OC)c1,3.3,0.1,·,18*,-20,0.74,-1.9
Cc1ccc(NC(=O)CN2C(=O)CN(C)C2=O)cc1S(=O)(=O)N1CCCCC1,0.4,0.0,3%,4.7,8,0.68,-2.9
COC(=O)C1CCN(C(c2cccs2)c2sc3nc(C)nn3c2O)CC1 (stereo not given),8.9,-0.8,·,0.4,5,0.74,-1.7
Cc1ccccc1CN1C(=O)Nc2ccccc2C(=O)N1C(C)(C)C,0.6,0.1,16%,-4.1,13,0.66,-1.5

# Shown as a hit in LANA-H2B inh, among the entries above:
Structure | UCH37 DUB inh | Vif TR-FRET | LANA-H2B inh | Beta2AR agonist | Ecoli growth | HNF4A DNA FP
CCOC(=O)c1c(CSc2ccccc2)n(C)c2ccc(O)c(CN3CCOCC3)c12 | 5.5 | 2% | 18* | -1 | 0.73 | -3.4
COc1ccc(N(C)C(=O)c2cc3c(s2)-c2ccccc2OC3)c(OC)c1 | 3.3 | · | 18* | -20 | 0.74 | -1.9

# Carrying on.
SMILES,UCH37 DUB inh,A1 inh,Vif TR-FRET,LANA-H2B inh,Beta2AR agonist,Ecoli growth,HNF4A DNA FP
Cc1cccc(NC(=O)c2cccc(NC(=O)Cc3cccs3)c2)c1,-0.7,-2.1,0%,3.1,3,0.65,2.8
CN(Cc1ccccc1)C(=O)CCSc1nc(-c2ccc3c(c2)OCO3)cc(C(F)(F)F)n1,-35,0.2,29%,-4.4,-10,0.71,-0.6
CN1CCc2c(sc3nc(SCC(N)=O)n(-c4ccccc4)c(=O)c23)C1,-34,0.0,14%,-5.0,2,·,20
Cc1ccc(NC(=O)c2ccc(=O)[nH]n2)cc1S(=O)(=O)Nc1ccccc1Cl,-7.5,1.1,-3%,5.6,-6,0.73,0.7
Cc1ccc(NC(=O)C2CCN(S(=O)(=O)c3ccc4c(c3)CCCC(=O)N4)CC2)c(Br)c1,1.3,0.9,·,-3.5,-7,0.7,-1.9
COc1cc(CCC(=O)NCc2ccc(Cl)cc2)cc(OC)c1OC,0.1,1.8,-10%,3.8,1,0.66,0.1
O=C(c1ccco1)N1CCN(Cc2cn[nH]c2-c2ccc(F)cc2F)CC1,0.0,0.4,10%,1.3,-5,0.69,-2.4
O=C(NCC1COc2ccccc2O1)c1cc2ccccc2o1 (stereo not given),6.0,-0.1,·,-8.1,-9,0.68,-2.1
Cc1cc(N2CCC(C(=O)N3CCN(c4cccc(C)c4C)CC3)CC2)n2ncnc2n1,0.8,-1.1,12%,1.1,-3,0.69,0.1
Cc1[nH]nc(-c2ccc(O)c(C)c2O)c1Oc1ccccc1,3.4,-0.4,8%,-5.4,·,0.66,2.9
COc1ccccc1N1CCN(C2CCCCC2NS(=O)(=O)c2ccccc2)CC1 (stereo not given),1.8,-0.3,-1%,-5.2,7,0.66,3.2
CN=C1NC(C)(C)C2CCC(C)(CC2)S1,0.1,·,-2%,·,0,0.63,-3.9

# An excerpt from above in order of the Beta2AR agonist value, ascending:
SMILES | Beta2AR agonist
COc1cccc(/C=C/C(=O)c2ccc[nH]2)c1 | -3
COc1ccc(S(=O)(=O)N2CCOCC2)cc1N(C)S(=O)(=O)c1ccc(C)cc1 | -2
COc1cc(CCC(=O)NCc2ccc(Cl)cc2)cc(OC)c1OC | 1

# Further entries.
SMILES,UCH37 DUB inh,A1 inh,Vif TR-FRET,LANA-H2B inh,Beta2AR agonist,Ecoli growth,HNF4A DNA FP
COc1ccc(N2CC(C(=O)N3CCc4ccccc43)CC2=O)cc1 (stereo not given),1.1,-1.6,·,-6.1,-2,0.7,-1.1
COc1ccc(CNC(=O)CCS(=O)(=O)c2ccc3c(c2)oc(=O)n3C)cc1,2.4,-0.5,·,-1.8,-3,0.7,-0.5
COc1ccc2nc3sc(C(=O)N4CCN(C)CC4)cc3cc2c1,-40,-0.5,1%,-3.3,-1,0.77,-0.7
O=c1onc(-c2c(F)cccc2F)n1-c1ccccc1Cl,5.0,-0.4,-7%,-0.9,-6,0.7,3.7
O=C(COC(=O)CCc1c[nH]c2ccccc12)Nc1cc([N+](=O)[O-])ccc1Cl,4.3,-0.3,·,1.8,-1,0.72,0.6
COc1ccc(C(=O)NCCSCc2ccccc2C)cc1,0.9,0.2,-2%,1.7,1,0.61,0.0
Cc1cccc2[nH]c(CN(C)C(=O)C3CCC(=O)N(C4CC4)C3)nc12 (stereo not given),-0.5,-1.7,·,-6.4,1,0.69,1.6
CN(C)S(=O)(=O)N1CCN(C(=O)c2cccs2)CC1,2.1,0.4,-5%,-1.3,-6,0.7,-2.3
CC(=O)N[C@@H](Cc1c[nH]c2ccccc12)C(=O)OCC(=O)Nc1ccc(Cl)c(S(=O)(=O)N(C)C)c1,3.5,0.5,·,12,29,0.65,2.1
CCCCn1c(N)c(N(CC)C(=O)CSc2nnc(-c3ccco3)n2CC)c(=O)[nH]c1=O,3.8,-0.7,8%,7.6,6,0.7,-1.1
COc1cccc(C(=O)Oc2ccc3ccc(O)cc3c2)c1,3.6,-0.1,·,-2.3,·,0.66,·
CN(C(=O)c1ccc(NC(=O)Cc2cccc(NC(=O)C3CCCN(C(=O)C4CCC4)C3)c2)cc1)C1CC1 (stereo not given),2.0,·,-3%,·,-2,0.65,3.4
O=c1[nH]nc(CNc2cccc(C(F)(F)F)c2)c2ccccc12,3.3,-0.4,-6%,2.6,-4,0.72,3.1
CCC1=NN(C(=O)c2cccnc2)C(O)(C(F)(F)F)C1 (stereo not given),-0.2,0.2,6%,-0.3,1,0.7,-3.5
O=c1c2ccc([N+](=O)[O-])cc2ncn1CCOc1ccccc1,·,1.3,1%,2.6,11,·,3.7
CCOc1cc(NC(=O)c2ccco2)c(OCC)cc1NC(=O)c1ccco1,-139,0.5,·,-3.6,-27,0.67,2.0
CN1CCC(N(C)CC(=O)Nc2ccccc2N2CCOCC2)CC1,6.3,2.0,2%,-3.8,-14,0.74,-4.0
Cc1[nH]c2ccccc2c1C1=NNC(=Nc2ccc(F)cc2)SC1,5.0,0.5,·,-7.7,-1,0.71,5.4
COc1ccc(C2=CC(=O)OC(C)(c3ccccc3)O2)cc1 (stereo not given),-1.1,1.2,-9%,2.3,-6,0.69,2.8
Cc1ccc(C(=O)Nc2ccccc2-c2ccccc2)cc1S(=O)(=O)Nc1cccc(C)c1C,3.2,0.1,0%,1.1,8,0.72,-3.9
O=C(CCc1nc(-c2ccccc2F)no1)NCCN1CCOCC1,3.5,0.7,26%,-11,-5,0.77,5.9
C/C(=N/OC(=O)c1ccc(Br)cc1)c1ccc(C)cc1,·,1.4,·,4.5,1,·,0.8
CC(=O)Nc1nonc1-c1nc2ccccc2n1C,-1.1,0.1,·,-1.1,-4,0.67,0.0
O=C(Nc1ccccc1C(=O)Nc1ccccc1C(=O)NCc1ccco1)c1ccco1,-22,0.6,12%,-2.0,10,0.73,-3.0
CCC(Oc1ccccc1)C(=O)Nc1ccccc1C(=O)N1CCOCC1 (stereo not given),-1.3,1.7,4%,2.3,0,0.68,-0.3
Cc1cc(C)cc(N=Cc2[nH]c3ccc(Br)c(Cl)c3c2O)c1,11,-0.1,10%,-6.1,·,0.71,27
